Compound activity deposited in PubChem BioAssay by National Center for Advancing Translational Sciences (NCATS).
ClpP mod = qHTS Assay for Activators of ClpP | ATP-dependent Clp protease proteolytic subunit (Bacillus subtilis (strain 168)), P80244 | purified B. subtilis ClpP, FRET peptide cleavage, 20 min | Potency, µM (highest dose often 57.5 µM), for the others: at the top dose activity change, negative = active | 340,000 tested, 1.9% active; active = well fitted falling curve with a large enough effect; inconclusive = small, poorly fitted or top-dose-only effect; inactive = no such curve, though single readings can be large or run the other way; note: the source files actives as falling curves though it sought activators and does not explain the sign; nearly all actives have a fitted effect of over 65% in size; many hits overshoot -100%
Target sequence (P80244 whole entry, looked up): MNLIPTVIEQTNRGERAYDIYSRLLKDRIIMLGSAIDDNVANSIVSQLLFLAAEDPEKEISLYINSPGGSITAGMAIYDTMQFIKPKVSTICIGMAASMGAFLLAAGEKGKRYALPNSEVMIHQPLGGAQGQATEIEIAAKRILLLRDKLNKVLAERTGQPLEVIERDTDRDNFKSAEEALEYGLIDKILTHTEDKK
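Purified B. subtilis ClpP, 10 microg/mL final in Tris/HCl pH8 with KCl, BSA, glycerol and Tween-20, cleaved an Abz/nitrotyrosine-quenched decapeptide. Fluorescence (ex 320, em 430) was read at 0 and 20 min at room temperature. Delta was normalized to 5.8 microM ADEP and DMSO/no-enzyme controls.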
Active calls of the source: *; ? = inconclusive. Potency is the fitted concentration of half-maximal effect.

item	canonical_smiles	ClpP mod
1	CCOC(=O)[C@]12CCCC=C1N(CCC1=CCCCC1)C(=O)[C@H](CC(=O)NCc1cccc3ccccc13)C2	-1.8%
2	Cc1cccc(C)c1NC(=O)C(c1ccccc1)n1c(-c2ccccc2)nc2ccccc21 (stereo not given)	-4.7%
3	C=CCOC(=O)Nc1nc(CCNC(=O)OCc2ccccc2)c(C(=O)OC)s1	-0.5%
4	Cc1cnc(-c2nc3ccccc3n2C(C(=O)NC(C)(C)C)c2cc3ccccc3o2)cn1 (stereo not given)	?
5	CC(=O)C[C@@H]1OC[C@H](Cc2ccccc2)N1S(=O)(=O)c1ccc(C)cc1	-0.5%
6	CC(C)NC(=O)C1(C)CSCC(=O)N1CCOc1ccccc1 (stereo not given)	0.6%
7	O=C(NCc1ccccc1)C(c1ccccc1)n1c(-c2ccncc2)nc2ccccc21 (stereo not given)	4.0%
8	COC(=O)C1[C@H]2SC(C)(C)C(C(=O)OC)N2C(=O)N1Cc1ccccc1 (stereo not given in full)	0.2%
9	COc1ccc(OC)c2c(/C=C/c3c[nH]c4ccccc34)ccnc12	-2.6%
10	COc1ccc(CCNC(=O)c2cc([C@@H](NC(=O)OC(C)(C)C)C(C)C)sc2N)cc1OC	-0.1%
11	CC(C)NC(=O)C1(C)CSCC(=O)N1Cc1cccc(C(F)(F)F)c1 (stereo not given)	0.4%
12	COC(=O)[C@@]12C[C@@H](CC(=O)NCCCCc3ccccc3)C(=O)N(Cc3ccco3)C1=CCC(C)(C)C2	3.4%
13	CCC(C(=O)NC1CCCC1)n1c(-c2cc3ccccc3[nH]2)nc2ccccc21 (stereo not given)	4.4%
14	O=c1c(-c2ccccc2)nc2ccccc2n1C(c1ccccn1)c1nc2ccccc2[nH]1 (stereo not given)	4.3%
15	COC(=O)C[C@H]1CC[C@@H](NC(=O)C2CC2)[C@@H](CO)O1	-3.2%
16	COCc1cn(CC[C@@H]2CC[C@@H](NC(=O)Nc3ccc4c(c3)OCO4)[C@@H](CO)O2)nn1	-2.3%
17	C=CCNC(=O)c1ccsc1N	-8.8%
18	CCc1ccc(C2CC3C(CN2S(=O)(=O)c2ccc(C)cc2)C(=O)CC(c2ccc(CC)cc2)N3S(=O)(=O)c2ccc(C)cc2)cc1 (stereo not given)	1.6%
19	O=c1c(-c2cccnc2)nc2ccccc2n1C(CCc1ccccc1)c1nc2ccccc2[nH]1 (stereo not given)	?
20	Cc1cc(C)c2ccccc2n1	0.9%
21	C(=C\c1nccc2ccccc12)/c1ccc(N2CCOCC2)cc1	0.3%
22	N#Cc1ccc(C(C(=O)NCc2ccccc2)n2c(=O)c(-c3ccco3)nc3ccccc32)cc1 (stereo not given)	3.4%
23	COC(=O)[C@]12CCCCC=C1N(CCc1ccc(OC)c(OC)c1)C(=O)[C@H](CC(=O)N1CCC(c3ccccc3)CC1)C2	1.6%
24	O=C(C[n+]1ccncc1Cl)c1ccc(F)cc1	-0.6%
25	COC(=O)C1=CN(c2ccc(N3CCOCC3)cc2)C(N)=C(C#N)C1c1ccc(-c2ccccc2)cc1 (stereo not given)	-28.5%
26	CCOC1=C2CN(S(=O)(=O)c3ccc(C)cc3)C(c3ccc(C)cc3)CC2N(S(=O)(=O)c2ccc(C)cc2)C(c2ccccc2)C1 (stereo not given)	-1.9%
27	CC(C)(C)OC(=O)Nc1ccccc1-n1nnnc1C(C(=O)c1ccc(F)cc1)N1CCOCC1 (stereo not given)	-2.4%
28	COC(=O)C1=C(C(=O)OC)[C@]2([C@@H]3C/C=C\CN[C@@H](Cc4ccccc4)C(=O)N3Cc3ccccc3)C=C[C@H]1O2	0.5%
29	O=C(C(=O)N1CCN(c2ccccc2)CC1)c1ccncc1	-3.5%
30	CC(C(=O)NCc1ccccc1)n1c(Cc2cc(F)cc(F)c2)nc2ccccc21 (stereo not given)	-3.5%

Copied from above, compounds 1–15
item	canonical_smiles	ClpP mod
1	CCOC(=O)[C@]12CCCC=C1N(CCC1=CCCCC1)C(=O)[C@H](CC(=O)NCc1cccc3ccccc13)C2	-1.8%
2	Cc1cccc(C)c1NC(=O)C(c1ccccc1)n1c(-c2ccccc2)nc2ccccc21 (stereo not given)	-4.7%
3	C=CCOC(=O)Nc1nc(CCNC(=O)OCc2ccccc2)c(C(=O)OC)s1	-0.5%
4	Cc1cnc(-c2nc3ccccc3n2C(C(=O)NC(C)(C)C)c2cc3ccccc3o2)cn1 (stereo not given)	?
5	CC(=O)C[C@@H]1OC[C@H](Cc2ccccc2)N1S(=O)(=O)c1ccc(C)cc1	-0.5%
6	CC(C)NC(=O)C1(C)CSCC(=O)N1CCOc1ccccc1 (stereo not given)	0.6%
7	O=C(NCc1ccccc1)C(c1ccccc1)n1c(-c2ccncc2)nc2ccccc21 (stereo not given)	4.0%
8	COC(=O)C1[C@H]2SC(C)(C)C(C(=O)OC)N2C(=O)N1Cc1ccccc1 (stereo not given in full)	0.2%
9	COc1ccc(OC)c2c(/C=C/c3c[nH]c4ccccc34)ccnc12	-2.6%
10	COc1ccc(CCNC(=O)c2cc([C@@H](NC(=O)OC(C)(C)C)C(C)C)sc2N)cc1OC	-0.1%
11	CC(C)NC(=O)C1(C)CSCC(=O)N1Cc1cccc(C(F)(F)F)c1 (stereo not given)	0.4%
12	COC(=O)[C@@]12C[C@@H](CC(=O)NCCCCc3ccccc3)C(=O)N(Cc3ccco3)C1=CCC(C)(C)C2	3.4%
13	CCC(C(=O)NC1CCCC1)n1c(-c2cc3ccccc3[nH]2)nc2ccccc21 (stereo not given)	4.4%
14	O=c1c(-c2ccccc2)nc2ccccc2n1C(c1ccccn1)c1nc2ccccc2[nH]1 (stereo not given)	4.3%
15	COC(=O)C[C@H]1CC[C@@H](NC(=O)C2CC2)[C@@H](CO)O1	-3.2%

Other entries follow.
item	canonical_smiles	ClpP mod
31	O=[N+]([O-])c1ccc(Cl)c(CN2CCN(c3ncc(Cc4ccccc4)cn3)CC2)c1	-4.8%
32	COc1ccc(CCNC(=O)C(F)(F)F)cc1S(N)(=O)=O	0.6%
33	CC(=O)N[C@@H]1C=C[C@@H](CC(=O)NCc2ccc(Cl)cc2)O[C@@H]1CO	-0.2%
34	COc1cc(N)c(NC(=O)/C=C/c2nc3cc(OC)c(OC)cc3[nH]2)cc1OC	4.4%
35	Cc1cc2nccc(/C=C/c3ccc(N(C)C)cc3)c2cc1C	-3.7%
36	COc1ccc(N2CCN(C(=O)C(=O)c3cccc([N+](=O)[O-])c3)CC2)cc1	-1.4%
37	CCC(C)CN1C(=O)CN(S(C)(=O)=O)CC1(C)C(=O)NCc1ccccc1 (stereo not given)	-1.3%
38	CCCCCNC(=O)C(c1ccccc1)n1c(=O)c(-c2cc3ccccc3[nH]2)nc2ccccc21 (stereo not given)	?
39	CCOC(=O)[C@]12CCCC=C1N(CCC1=CCCCC1)C(=O)[C@H](CC(=O)N1CCN(C(=O)C3CC3)CC1)C2	0.3%
40	COc1ccc(CN2C[C@H](O)COC[C@@H]3O[C@H](CC(=O)NCc4ccncn4)CC[C@H]32)cc1	-4.3%
41	C#CCNC(=O)C[C@@H]1C[C@@]2(C(=O)OC)CCCCC=C2N(CCc2ccc(OC)c(OC)c2)C1=O	1.0%
42	CC(C)(C)NC(=O)C(c1ccc(C(F)(F)F)cc1)n1c(=O)c(-c2ccco2)nc2ccccc21 (stereo not given)	4.7%
43	O=c1c(-c2ccco2)nc2ccccc2n1C(c1ccccc1)c1nc2ccccc2[nH]1 (stereo not given)	4.7%
44	Cc1ccc2c(C)ccnc2c1	-11.3%
45	Cc1ccc(S(=O)(=O)NCc2ccccc2NS(=O)(=O)c2ccc(C)cc2)cc1	-4.7%
46	COc1ccc2cc(C3CC=C(COC(C)=O)CN3S(=O)(=O)c3ccccc3[N+](=O)[O-])n(C(=O)OC(C)(C)C)c2c1 (stereo not given)	2.2%
47	Cc1cccc(C)c1NC(=O)C1C(c2ccc3c(c2)OCO3)=Nc2ccccc2N1C(=O)c1ccccn1 (stereo not given)	-4.0%
48	Cc1ccc2ccc(C(Nc3ccccc3)c3ccc(F)cc3)c(O)c2n1 (stereo not given)	-1.4%
49	Cc1ccc(S(=O)(=O)N2[C@H](CC(=O)c3cccc4ccccc34)OC[C@@H]2C(C)C)cc1	-2.4%
50	COC(=O)[C@@]12C[C@@H](CC(=O)N3CCC(c4ccccc4)CC3)C(=O)N(Cc3ccccc3)C1=CCC(C)(C)C2	1.8%
51	Cc1cccc(C)c1NC(=O)C(c1cccc(F)c1)N1CCN(C)CC1 (stereo not given)	-0.8%
52	Cc1ccnc2ncccc12	1.3%
53	Cc1sc2ccccc2[n+]1CCC[n+]1c(C)sc2ccccc21	-3.1%
54	COC(=O)Cc1ccccc1NS(=O)(=O)c1ccc(C)cc1	-1.1%
55	COc1ccc(C(=O)C[C@@H]2OC[C@H](C)N2S(=O)(=O)c2ccc(C)cc2)cc1OC	-5.0%
56	COC(=O)[C@]12CCCCC=C1N(CCc1ccc(OC)c(OC)c1)C(=O)[C@H](CC(=O)NCCCCc1ccccc1)C2	-0.3%
57	COc1ccc(NC(=O)C2C(c3ccc4c(c3)OCO4)=Nc3ccccc3N2C(C)=O)cc1 (stereo not given)	-5.8%
58	COCCN1C(=O)CCC1(C)c1nnnn1-c1ccc2ccccc2c1 (stereo not given)	-8.5%
59	CCCCCNC(=O)C(c1cccc2ccccc12)n1c(=O)c(-c2ccco2)nc2ccccc21 (stereo not given)	4.6%
60	CCOC(=O)[C@]12CCCC=C1N(Cc1ccccc1)C(=O)[C@H](CC(=O)NCCc1ccccc1OC)C2	0.8%
61	Cc1nc(NC(=O)c2ccccc2)sc1-c1cc(C(=O)N2CCOCC2)nn1CCO	-3.6%
62	O=C(NCc1ccccc1)C(c1ccc(C(F)(F)F)cc1)n1c(=O)c(-c2ccco2)nc2ccccc21 (stereo not given)	4.8%
63	O=C(NCc1cccs1)C1C(=O)Nc2ccccc2C(=O)N1C1CCCC1 (stereo not given)	-26.4%
64	Cc1ccccc1CN1C(=O)CSCC1(C)C(=O)NCc1ccccc1 (stereo not given)	1.1%
65	O=C(Nc1ccc2c(c1)OCCO2)C(c1ccnc2ccccc12)n1c(=O)c(-c2ccco2)nc2ccccc21 (stereo not given)	-18.7%
66	CCC(C)CN1C(=O)CSCC1(C)C(=O)Nc1c(C)cccc1C (stereo not given)	-1.0%
67	Oc1ccc(Br)c(CN2CCN(c3ncc(Cc4ccccc4)cn3)CC2)c1	-0.4%
68	COC(=O)C1=CN(c2ccc(F)cc2)C(N)=C(C#N)C1c1cccc(OC)c1OC (stereo not given)	1.3%
69	COC(=O)[C@@]12C[C@@H](CC(=O)N3CCCC3)C(=O)N(Cc3ccco3)C1=CCC(C)(C)C2	-1.8%
70	O=C(Nc1ccc(F)cc1)C(c1ccccc1)N1CCN(c2ccncc2)CC1 (stereo not given)	0.6%
71	COc1ccc(C(=O)C[C@@H]2OC[C@H](C(C)C)N2S(=O)(=O)c2ccc(C)cc2)cc1OC	-5.9%
72	CCCCCNC(=O)C(c1cc2ccccc2o1)n1c(=O)c(-c2cc3ccccc3[nH]2)nc2ccccc21 (stereo not given)	2.9%
73	COC(=O)C[C@H]1CC[C@H](NC(=O)c2cccc(F)c2)[C@@H](CO)O1	-0.3%
74	CC(C)c1cc(Cn2c3ccccc3c(=O)n2C(C)Cn2cc(C3CC3)nn2)on1 (stereo not given)	4.8%
75	COC(=O)C1=CN(c2ccc(OC)cc2OC)C(N)=C(C#N)C1c1ccc(OC)cc1 (stereo not given)	86.4%
76	COc1cc(C=O)cc(OC)c1[N+](=O)[O-]	-1.5%
77	CC1(C)S[C@@H]2C(C(=O)O)NC(=O)N2C1C(=O)O (stereo not given in full)	-1.0%
78	Cc1ccc2ccc(C(Nc3ccccc3)c3ccccc3)c(O)c2n1 (stereo not given)	-2.7%
79	C=CC[n+]1cccc2cccc(O)c21	0.4%
80	O=C(C[C@H]1CC[C@H]2[C@@H](COC[C@@H](O)CN2S(=O)(=O)c2ccccc2)O1)N[C@@H]1CCN(Cc2ccccc2)C1	-0.9%
81	O=C(N[C@@H]1CC[C@@H](CCNS(=O)(=O)c2ccc(Cl)cc2)O[C@@H]1CO)c1cccnc1	-4.5%
82	CCC(C)CN1C(=O)CSCC1(C)C(=O)NCc1ccccc1 (stereo not given)	-4.8%
83	CCCNC(=O)C[C@@H]1CC[C@@H]2[C@H](COC[C@H](O)CN2C(=O)c2cc(Cl)cc(Cl)c2)O1	1.7%
84	CCCc1c(-c2cccc(Cl)c2)ncn1Cc1cccc(-c2ccccc2)c1	-18.7%
85	O=C(Nc1ccc(F)cc1)C(CCc1ccccc1)N1CCN(CC(=O)N2CCCC2)CC1 (stereo not given)	1.4%
86	Cc1ccc(OCc2nc3ccccc3n2C(C(=O)NC(C)(C)C)c2ccccc2)cc1 (stereo not given)	-13.1%
87	COc1ccc(NC(=O)C(c2ccccc2)n2c(=O)c(-c3ccco3)nc3ccccc32)cc1 (stereo not given)	-12.0%
88	Cc1cccc(C)c1NC(=O)C1(C)CN(S(C)(=O)=O)CC(=O)N1C1CC1 (stereo not given)	-1.7%
89	COc1ccc(N2CCN(C(=O)C(=O)c3cc(OC)c(OC)c(OC)c3)CC2)cc1	-1.2%
90	O=C1CCC[C@@H]2C[C@@]3(C[C@@H]4CCN1[C@H]24)Nc1ccccc1NC3=NC1CCCCC1	0.6%

Other records
item	canonical_smiles	ClpP mod
91	COc1ccccc1C(CC(=O)c1ccccc1)C(=O)c1ccccc1 (stereo not given)	-2.0%
92	CCOC(=O)/C=C/c1cc(F)ccc1O	-10.1%
93	CCc1c(C)c2ccccc2[nH]c1=O	-25.2%
94	O/N=C(/C[n+]1ccsc1)c1ccc(I)cc1	-0.6%

The list is partial. The share of hits here may be higher or lower than overall.
